Bioassay records as filed in PubChem BioAssay.
GSK3 alpha inh = blockers of GSK3A enzyme activity – biochemical, luminescence, cell-free homogeneous, HTS, primary screen; Glycogen synthase kinase-3 alpha (Homo sapiens), P49840; AID 2650, 2010; 0.1% of 320,000 active; GSK-3 alpha kinase, ADP-Glo luminescence, 60 min; inhibition, % at 10 µM;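 in the data active = inhibition above about 50%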;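 note: GST-tagged GSK-3 alpha with peptide substrate and 25 µM ATP; 0% = DMSO neutral wells and 100% = GW8510 positive control wells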
KCNQ1 inh = inhibitors of human KCNQ1 channel, primary screen, cell-based, thallium flux, high-throughput; Potassium voltage-gated channel subfamily KQT member 1 (Homo sapiens), P51787; B-score at 10 µM; 1.3% of 310,000 active; CHO-K1 KCNQ1, FluxOR thallium flux fluorescence; hits give high values;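 active = compounds whose thallium flux B-score, printed positive for inhibition, exceeds three library SD while starting fluorescence stays within three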;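 note: channel opened by potassium depolarization with thallium stimulus after 20 min compound exposure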
PolyA inh = polyadenylation inhibitors in yeast reporter cells, primary screen, luminescence, S. cerevisiae | S. cerevisiae SKY197-pL101 polyadenylation reporter, beta-gal luminescence; efflux-impaired pdr1/pdr3 knockout yeast; score 100 = 6 SD above DMSO | calls only at 12 µM | 0.02% of 300,000 active | AID 1875, 2009;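 active = lowest replicate activity score at least 50, where 100 means six control SD above control mean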;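 note: yeast exposed to compound for 9 h at 30 °C; higher score means more reporter readthrough which indicates perturbed polyadenylation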
RGS4 inh = RGS4 inhibitors, primary screen, cell-based, HEK293 M3R inducible RGS4, calcium flux | Fluo-4 calcium flux; hits give high values; triggered by carbachol at its EC20 | 0.45% of 310,000 active | B-score at 10 µM | Regulator of G-protein signaling 4 (Homo sapiens), P49798;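 active = B-score, a plate-corrected calcium signal, over three deviations above library mean, with baseline fluorescence within five deviations of library mean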;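 note: RGS4 expression induced by doxycycline in cells with stable M3 receptor; B-score is computed from the integrated fluorescence ratio over baseline after carbachol; higher B-score means a larger calcium signal and so more RGS4 inhibition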
Target sequence (P49798 whole entry, looked up): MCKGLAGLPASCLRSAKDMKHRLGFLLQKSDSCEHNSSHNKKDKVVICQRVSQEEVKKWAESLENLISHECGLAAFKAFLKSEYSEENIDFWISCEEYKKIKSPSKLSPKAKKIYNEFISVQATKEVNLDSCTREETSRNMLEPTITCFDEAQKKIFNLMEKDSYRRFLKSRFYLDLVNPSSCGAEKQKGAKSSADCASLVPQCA
KCNK3 inh = human KCNK3 channel inhibitors, primary screen, CHO cells, FluxOR thallium flux, B-score | Potassium channel subfamily K member 3 (Homo sapiens), O14649 | FluxOR fluorescence; hits give low values | B-score at 10 µM | 0.84% of 340,000 active | AID 602410, 2012;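 active = B-score under library mean minus 4 SD, starting fluorescence ratio at most library mean plus 5 SD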;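 note: more negative B-score means stronger inhibition of thallium flux through KCNK3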
Target sequence (O14649 whole entry, looked up): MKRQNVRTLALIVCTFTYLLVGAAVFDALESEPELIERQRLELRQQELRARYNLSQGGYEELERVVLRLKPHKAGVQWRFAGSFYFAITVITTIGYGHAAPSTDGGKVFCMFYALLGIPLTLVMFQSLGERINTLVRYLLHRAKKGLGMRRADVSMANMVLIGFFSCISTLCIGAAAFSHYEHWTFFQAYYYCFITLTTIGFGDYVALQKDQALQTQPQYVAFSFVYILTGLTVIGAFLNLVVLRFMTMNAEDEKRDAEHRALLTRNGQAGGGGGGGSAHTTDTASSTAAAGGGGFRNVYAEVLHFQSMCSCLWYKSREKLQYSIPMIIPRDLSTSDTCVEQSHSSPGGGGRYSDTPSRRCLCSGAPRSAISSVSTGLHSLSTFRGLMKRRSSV
Dyrk1A ADPGlo = rat Dyrk1A kinase inhibitors, primary screen, biochemical, single point, plate reader. Dual specificity tyrosine-phosphorylation-regulated kinase 1A (Rattus norvegicus), Q63470. ADP-Glo luminescence, NFATc1 peptide. inhibition, % at 12.5 µM. 0.43% of 310,000 active. AID 504441, 2011; in the data active = inhibition above about 50%;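 note: plate controls were vehicle with enzyme for no effect and no enzyme for full effect; many of its hits are not listed in these tables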
KCNQ1 pot = potentiators or activators of KCNQ1 channel, primary screen, cell-based, thallium flux, high-throughput; CHO-K1 KCNQ1, thallium flux FluxOR fluorescence; hits give high values; 0.35% of 310,000 active; B-score at 10 µM; Potassium voltage-gated channel subfamily KQT member 1 (Homo sapiens), P51787;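 active = fluorescence ratio B-score, a plate-corrected score, at least three library SD, with initial intensity B-score within 5 SD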
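Assay system: CHO-K1 cells stably expressing KCNQ1. Medium: assay buffer for compound exposure, DMSO matched across wells. Timing: 37 °C overnight plating, 90-min dark dye load, 20-min compound pretreatment. Signal: kinetic FluxOR fluorescence, 10 s baseline plus 110 s post-stimulus.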
RGS4 pot = RGS4 potentiators or activators, primary screen, cell-based, HEK293 M3R inducible RGS4, calcium flux. carbachol calcium flux Fluo4; hits give low values. B-score at 10 µM. 0.92% of 310,000 active. AID 463111, 2010;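 active = B-score of the integrated calcium signal more than 4 SD below the library mean, with starting fluorescence not abnormally high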;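 note: negative B-score means reduced calcium response which marks RGS4 activation or potentiation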
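Test system: HEK293 cells with stable M3R and inducible RGS4; also added: carbachol at ECmax as muscarinic agonist stimulus; schedule: dye loading 30 min 37 °C, buffer rest 30 min RT; technique: kinetic calcium fluorescence imaging with Fluo4-AM dye, 2 µM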
KCNK9 block = KCNK9 potassium channel inhibitors, primary screen, HEK293 cells, thallium flux; 1.2% of 310,000 active; B-score at 10 µM; FluxOR thallium flux fluorescence; hits give low values; Potassium channel subfamily K member 9 (Homo sapiens), Q9NPC2;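 active = ratio B-score over 3 SD below the library mean, with starting fluorescence within 5 SD of its mean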;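 note: negative B-score means less thallium flux so channel inhibition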
GSK3beta inhib = human GSK3beta kinase inhibitors, primary screen, biochemical, cell-free homogeneous, HTS; Glycogen synthase kinase-3 beta (Homo sapiens), P49841; GST-GSK3beta kinase, ADP-Glo luminescence, 60 min; hits give low values; activity score (negative = inhibition), % at 10 µM; 0.038% of 300,000 active; AID 2097, 2009;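 active = more than half of replicate wells score below -50%, meaning over 50% inhibition versus plate controls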;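 note: 0% = median DMSO wells and -100% = median GW8510 positive control wells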
Target sequence (P49841 whole entry, looked up): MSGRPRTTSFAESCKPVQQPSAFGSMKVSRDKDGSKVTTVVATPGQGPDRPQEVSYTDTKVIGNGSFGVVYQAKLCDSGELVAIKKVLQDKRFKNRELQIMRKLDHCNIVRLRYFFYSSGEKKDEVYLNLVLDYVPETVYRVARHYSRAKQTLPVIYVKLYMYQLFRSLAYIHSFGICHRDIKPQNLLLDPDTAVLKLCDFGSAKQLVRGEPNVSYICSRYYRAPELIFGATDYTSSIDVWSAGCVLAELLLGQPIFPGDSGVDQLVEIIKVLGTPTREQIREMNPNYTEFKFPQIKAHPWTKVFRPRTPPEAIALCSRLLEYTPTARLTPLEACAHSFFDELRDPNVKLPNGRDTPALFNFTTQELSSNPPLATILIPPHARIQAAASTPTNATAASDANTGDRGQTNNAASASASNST
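Test system – GST-tagged human GSK3beta kinase, cell-free · Incubation – 60 min enzyme reaction, room temperature · Signal – ADP-Glo luminescence · Also added – peptide substrate and ATP at 25 µM · Controls – DMSO neutral wells and GW8510 at 20 µM as positive · Buffer or medium – Tris/MgCl2 kinase buffer · Measure – Luminescence-derived activity versus plate DMSO and GW8510 wells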
An asterisk follows results filed as active; i = inactive; x = no result given; & = joins results of further samples. These rows are one share of the data. The share of hits here may be higher or lower than overall.

Each structure is followed by: GSK3 alpha inh	KCNQ1 inh	PolyA inh	RGS4 inh	KCNK3 inh	Dyrk1A ADPGlo	KCNQ1 pot	RGS4 pot	KCNK9 block	GSK3beta inhib
1) N=c1c2c(-c3ccccc3)c(-c3ccccc3)n(Cc3ccccc3)c2ncn1CCCO
 : 5	10*	i	i	i	-4	i	i	i	6
2) Fc1ccc(-c2cn3ccccc3n2)cc1
 : 5	i	i	i	i	17	i	i	i	1
3) CSC1=C(C#N)C(c2ccccc2Cl)C(C(C)=O)=C(C)N1 (configuration not stated)
 : 11	i	i	i	i	29	i	i	i	3
4) O=C1NC(=O)C(c2ccccc2)(c2ccccc2)N1
 : 0&-1	i	i	i	i	9&-11	i	i	i	-3&2
5) O=C(c1cccnc1)N1CCN(Cc2cccc(F)c2)CC1
 : 16	i	i	i	i	1	i	i	i	6
6) COc1cc2[nH]c(C(=O)N3CC(C)OC(C)C3)cc2c(OC)c1OC (configuration not stated)
 : 0	i	i	i	i	-4	i	i	i	2
7) Cc1cc2n(c(=O)c1C#N)CCCN2c1ccccc1
 : 1	i	i	i	i	-8	i	i	i	-3
8) CC(=O)O[C@H]1C[C@@]2(C)[C@@H](C[C@@H](O)[C@H]3[C@@]4(C)CC[C@@H](O)[C@@H](C)[C@@H]4CC[C@@]32C)/C1=C(\CCC=C(C)C)C(=O)O
 : -2&-4	i	i	i	i	0&-9	i	i	i	3
9) CCOC(=O)c1cnn(-c2ccccc2)c1NC(=O)C(F)(F)C(F)(F)C(F)(F)F
 : 0	i	i	i	i	1	i	i	i	-1
10) O=C(O)c1ccc(Cl)c(S(=O)(=O)Nc2ccccc2N2CCOCC2)c1
 : 0	i	i	i	i	-1	i	i	i	2
11) CC(C(=O)NN=C(c1ccccc1)c1ccccc1)N1CCCC1 (configuration not stated)
 : -4	i	i	i	i	8	i	i	i	-2
12) OCc1cccnc1
 : 0	i	i	i	x	x	i	i	i	0
13) CN1C2CCC1CC(OC(c1ccccc1)c1ccccc1)C2 (configuration not stated)
 : 3	i	i	i	i	1	i	-8.8*	i	-1
14) NCCc1ccc(O)c(O)c1
 : 1	i	i	i	i	4	i	i	i	-2
15) CC(C)NCC(O)COc1ccc(CC(N)=O)cc1 (configuration not stated)
 : 2	i	i	i	i	4	i	i	i	-2
16) CSc1ccccc1NC(=O)c1cc(CC(C)C)on1
 : -1	i	i	i	i	4	i	i	i	0
17) O=C(Cn1ncc2c1-c1ccccc1OC2)N1CCc2ccccc21
 : 1	i	i	i	i	1	i	i	i	2
18) CC(C)NC[C@H](O)COc1cccc2[nH]ccc12
 : -1	i	i	i	i	4	i	i	i	3
19) CC(=O)O[C@H]1C[C@@]2(C)[C@@H](C[C@@H](O)[C@H]3[C@@]4(C)CC[C@@H](O)[C@@H](C)C4CC[C@@]32C)/C1=C(\CCC=C(C)C)C(=O)O (some centres not stated)
 : x	i	i	i	i	7	i	i	i	0
20) NCCS
 : -2	i	i	i	i	-4	i	i	i	0
21) NC[C@@H]1O[C@H](O[C@H]2[C@@H](O)[C@H](O[C@@H]3[C@@H](O)[C@H](N)C[C@H](N)[C@H]3O[C@H]3O[C@H](CO)[C@@H](O)[C@H](O)[C@H]3N)O[C@@H]2CO)[C@H](N)[C@@H](O)[C@@H]1O
 : 3	i	i	i	x	x	i	i	i	-4
22) C(=C\c1ccccc1)/CN1CCN(C(c2ccccc2)c2ccccc2)CC1
 : x	i	i	i	i	-1	i	i	i	6
23) CCCCC[C@H](O)/C=C/[C@@H]1[C@@H](C/C=C\CCCC(=O)O)[C@@H](O)C[C@H]1O
 : -2	i	i	i	i	10	i	i	i	3
24) CCOC(=O)c1ccc(NC(=O)CCOc2ccc(OC)cc2)cc1
 : x	i	i	i	i	4	i	i	i	2
25) CN1CCCN=C1/C=C/c1cccs1
 : 0	i	i	i	i	x	i	i	i	-1
26) Cn1nnnc1SCC1=C(C(=O)O)N2C(=O)[C@@H](NC(=O)[C@H](O)c3ccccc3)[C@H]2SC1
 : -4	i	i	i	i	0	i	i	i	5
27) C#C[C@]1(O)CC[C@H]2[C@@H]3CCC4=C(CCC(=O)C4)[C@H]3CC[C@@]21C
 : 5	i	i	i	i	-1	i	i	i	-1
28) Cc1ccc(-c2cc(C(F)(F)F)nn2-c2ccc(S(N)(=O)=O)cc2)cc1
 : 1	i	i	i	i	10	i	i	i	1
29) CCOc1ccc(C2C(C(=O)c3ccc(C)o3)=C(O)C(=O)N2Cc2cccnc2)cc1 (configuration not stated)
 : -1	i	i	i	i	2	i	i	i	1
30) CC(=O)NC1(NC(C)=O)CCN(C)C(c2ccccc2)C1C (configuration not stated)
 : -2	i	i	i	i	-2	i	i	i	-2

Entries of single compounds from above.
`CC(C)NC[C@H](O)COc1cccc2[nH]ccc12` is listed with GSK3 alpha inh = -1; KCNQ1 inh = i; PolyA inh = i; RGS4 inh = i; KCNK3 inh = i; Dyrk1A ADPGlo = 4; KCNQ1 pot = i; RGS4 pot = i; KCNK9 block = i; GSK3beta inhib = 3
`OCc1cccnc1` is listed with GSK3 alpha inh = 0; KCNQ1 inh = i; PolyA inh = i; RGS4 inh = i; KCNK3 inh = x; Dyrk1A ADPGlo = x; KCNQ1 pot = i; RGS4 pot = i; KCNK9 block = i; GSK3beta inhib = 0

(more compounds)
Each structure is followed by: GSK3 alpha inh	KCNQ1 inh	PolyA inh	RGS4 inh	KCNK3 inh	Dyrk1A ADPGlo	KCNQ1 pot	RGS4 pot	KCNK9 block	GSK3beta inhib
31) CN(C(=S)SCc1ccccc1)C1CCS(=O)(=O)C1 (configuration not stated)
 : -2	i	i	i	i	11	i	i	i	-5
32) O=C(N/N=C\c1ccc(Sc2ccccn2)o1)c1cccc(F)c1
 : -1	i	i	i	i	-6	i	i	i	1
33) Cc1nnc(SCC(=O)NCc2cccs2)[nH]c1=O
 : -3	i	i	i	i	-5	i	i	i	2
34) Cc1cc(Cl)ccc1OCCCC(=O)NO
 : 4	i	i	i	i	13	i	i	i	2
35) NCCCCCCNS(=O)(=O)c1cccc2c(Cl)cccc12
 : 4	i	i	i	i	3	i	i	i	-3
36) COc1cc(NS(=O)(=O)c2ccc(N)cc2)nc(OC)n1
 : -4	i	i	i	i	-6	i	i	i	-3
37) COCCN(C(=O)COC(=O)c1ccccc1Cc1ccccc1)c1c(N)n(Cc2ccccc2)c(=O)[nH]c1=O
 : -4	i	i	i	i	-5	i	i	i	3
38) COc1cccc(C2=NOC(C(=O)NC(C)C)C2)c1 (configuration not stated)
 : 0	i	i	i	i	-1	i	i	i	3
39) CC(=O)O[C@]1(C(C)=O)CC[C@H]2[C@@H]3C=C(C)C4=CC(=O)CC[C@]4(C)[C@H]3CC[C@@]21C
 : x	i	i	i	i	8	i	i	i	-3
40) Nc1nonc1-n1nnc(C(=O)N/N=C/c2ccc(OCc3ccc(F)cc3)cc2)c1COc1ccccc1
 : -1	i	i	i	i	-2	i	i	i	0
41) CNCCC(Oc1ccc(C(F)(F)F)cc1)c1ccccc1 (configuration not stated)
 : 0	i	i	i	i	11	i	i	i	-3
42) CC(=O)CC(c1ccccc1)c1c(O)c2ccccc2oc1=O (configuration not stated)
 : -3&0&-2	i	i	i	i	9&4&-10	i	i	i	-2&3&-2
43) OC(CCN1CCCCC1)(c1ccccc1)C1CCCCC1 (configuration not stated)
 : 1	i	i	i	i	-2	i	i	i	3
44) CC(=O)SC1CC2=CC(=O)CCC2(C)C2CCC3(C)C(CCC34CCC(=O)O4)C12 (configuration not stated)
 : 1	i	i	i	i	-2	i	i	i	-3
45) CNCC[C@@H](Oc1ccc(C(F)(F)F)cc1)c1ccccc1
 : 4	x	x	x	i	15	x	x	x	x
46) CCN(CC)CC#CCOC(=O)C(O)(c1ccccc1)C1CCCCC1 (configuration not stated)
 : -2	i	i	i	i	5	i	-7*	i	5
47) COc1ccccc1NC(=O)CSc1nccc(=O)[nH]1
 : -3	i	i	i	i	7	i	i	i	8
48) O=C(N[C@H](CO)[C@H](O)c1ccc([N+](=O)[O-])cc1)C(Cl)Cl
 : 0	i	i	i	i	1	i	i	i	2
49) C=CC[C@]12C=C(OC)C(=O)C=C1O[C@@H](c1ccc3c(c1)OCO3)[C@H]2C
 : -10	i	i	i	i	1	i	i	i	3
50) Cc1cc(C)n(C(=O)C(C)n2nc([N+](=O)[O-])c(Br)c2C)n1 (configuration not stated)
 : -1	i	i	i	i	-2	i	i	i	-1
51) COC(CNC(=O)c1ccc(N2CCCC2=O)cc1)OC
 : 0	i	i	i	i	-4	i	i	i	3
52) COc1ccccc1OC[C@H](O)CO
 : 0	i	i	i	i	1	i	i	i	0
53) COc1ccc2cc(CN(CCO)C(=O)c3ccc(Br)cc3)c(=O)[nH]c2c1
 : x	i	i	i	i	-2	i	i	i	-2
54) CC(=O)O[C@]1(C(C)=O)CCC2C3C=C(C)C4=CC(=O)CC[C@]4(C)C3CC[C@@]21C (some centres not stated)
 : -1	i	i	i	i	3	i	i	i	3
55) O=C(O)c1ccc2c(c1)CC(c1ccccc1)OC2=O (configuration not stated)
 : 1	i	i	i	i	-1	i	i	i	6
56) Cc1ccc(NCC(O)C(O)C(O)CO)c(N=Nc2ccccc2)c1C (configuration not stated)
 : 0	i	i	i	i	5	i	i	i	0
